D2 potentiator: positive allosteric modulators of human D2 dopamine receptor. hit rate 0.23% among 360,000. DiscoveRx D2 beta-arrestin cells, luminescence, 90 min; 100% = 57 uM dopamine signal. potentiation, % (no concentration beside the values). AID 624464; active = potentiation of 50% or more; inconclusive = 30% to 50%; inactive = 30% or less;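 note: compound concentration not given in the record; tested on top of an EC20 dose of dopamine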
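PathHunter beta-arrestin assay in DiscoveRx D2 cells. Compounds were added with an EC20 of dopamine (50 nM final) for 90 min at 37 deg C. Luminescence was read 1 h after detection reagent, with 57 uM dopamine as the EC100 control.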
gsp agonist: agonists of gsp mutant (McCune-Albright syndrome). gsp mutant cells, cAMP HTRF, 30 min; control for the full effect not named in the record. Potency, µM (highest dose often 76.9 µM), without a hit: at the highest dose activation (cAMP increase), usual class: activators. hit rate 0.13% among 340,000. AID 624287; active = well fitted activation curve with a large enough effect; inconclusive = small, poorly fitted or top-dose-only effect, or another doubt; inactive = no such curve, though single readings can be large or run the other way; cell line not stated here;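 note: phosphodiesterase inhibitor Ro 20-1724 added with compounds to block cAMP breakdown; potency is the fitted concentration of half-maximal effect; nearly all actives have a fitted effect of over 60% in size; about a fifth of the inactives were tested at one dose only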
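Cells in DMEM/10% FBS with G418 were pretreated with compounds in DMSO plus […] (300 uM stock) for 30 min at 37C. cAMP was measured by HTRF (cAMP-d2 plus anti-cAMP antibody-K) after 30 min at room temperature.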
gsp antagonist: gsp mutant antagonism; Potency, µM (titrated, usually from 76.9 µM), for inactives: top-dose activity change, negative = inhibition, most hits filed as inhibitors; gsp-mutant cells, cAMP HTRF, 30 min; control for the full effect not named in the record; hit rate 0.4% among 340,000; active = falling curve of any shape with a large fitted effect; inconclusive = falling curve, mostly with a smaller effect; inactive = flat or rising curve; cell line not stated here;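 note: intracellular cAMP measured with PDE inhibitor Ro 20-1724 present during compound exposure; potency is the fitted concentration of half-maximal effect; % is set by controls: 0 for no effect and ±100 for the full control effect; nearly all actives have a fitted effect of over 65% in size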
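Cells in G418 medium, seeded 16-24 h, 37C; buffer exchange to DPBS + 1 mM CaCl2, 0.5 mM MgCl2, 0.05% BSA; cpds in DMSO + […] (300 uM stock), 30 min 37C; HTRF cAMP detection.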
Six1-Eya2 inh: Six1/Eya2 interaction inhibition | Q15475+O00167 | AlphaScreen GST-Six1/His-Eya2 binding, biochemical; hits give low values; control for the full effect not named in the record | activity change, % (test concentration not listed) | hit rate 0.56% among 360,000; in the data active = activity change below about -65%; inconclusive = about -30% to -65%; inactive = above about -30%; note: % is set by controls: 0 for no effect and ±100 for the full control effect; compound concentration not given in the record
Target sequence (O00167 whole entry, looked up): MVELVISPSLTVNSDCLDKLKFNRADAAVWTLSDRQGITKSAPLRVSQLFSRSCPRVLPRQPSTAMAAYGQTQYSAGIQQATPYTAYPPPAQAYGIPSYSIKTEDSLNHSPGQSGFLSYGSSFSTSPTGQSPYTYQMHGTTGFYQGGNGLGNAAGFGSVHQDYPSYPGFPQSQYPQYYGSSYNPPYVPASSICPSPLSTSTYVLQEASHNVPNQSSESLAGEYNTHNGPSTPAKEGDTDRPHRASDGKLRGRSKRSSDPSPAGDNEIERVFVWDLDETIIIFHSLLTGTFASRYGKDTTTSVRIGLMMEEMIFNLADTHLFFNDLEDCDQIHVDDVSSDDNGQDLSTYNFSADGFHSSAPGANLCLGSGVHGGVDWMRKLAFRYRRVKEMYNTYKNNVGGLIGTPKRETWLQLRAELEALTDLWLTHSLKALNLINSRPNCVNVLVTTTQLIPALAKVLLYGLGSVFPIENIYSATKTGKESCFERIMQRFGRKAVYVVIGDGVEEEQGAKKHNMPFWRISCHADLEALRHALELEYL
Target sequence (Q15475 whole entry, looked up): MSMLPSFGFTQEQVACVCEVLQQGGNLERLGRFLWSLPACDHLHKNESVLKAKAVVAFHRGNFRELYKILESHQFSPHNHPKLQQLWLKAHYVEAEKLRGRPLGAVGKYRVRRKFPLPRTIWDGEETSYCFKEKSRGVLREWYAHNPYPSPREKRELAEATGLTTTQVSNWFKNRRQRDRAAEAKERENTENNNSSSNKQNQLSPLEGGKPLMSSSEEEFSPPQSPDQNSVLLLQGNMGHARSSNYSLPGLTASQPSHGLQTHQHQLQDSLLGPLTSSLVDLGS
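Homogeneous AlphaScreen proximity assay pairing GST-Six1 with His-tagged Eya2 (added as 5X mix: 250 nM and 500 nM) in 50 mM Tris pH 8.0, 300 mM NaCl, 1 mM TCEP. Glutathione donor and nickel acceptor beads; 1 h, 37 °C, dark.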
D2 ag: agonists of human D2 dopamine receptor (beta-arrestin) | P14416 | DiscoveRx PathHunter D2 beta-arrestin, luminescence, 90 min; 100% = 57 uM dopamine signal | activation, % (concentration not given with the values) | hit rate 0.084% among 360,000; in the data active = activation above about 40%; inconclusive = about 15% to 40%; inactive = below about 15%; note: compound concentration not given in the record; the text of the record calls up to 30% inactive
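Agonist mode: compounds alone added to overnight-plated D2 PathHunter cells for 90 min at 37 C, with 57 uM final dopamine (EC100) defining full response. Beta-arrestin recruitment detected by chemiluminescent reagent, read after 1 h at ambient temperature.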
CtBP-E1A inh: inhibitors of CtBP/E1A interaction | AlphaScreen GST-E1A/His-CtBP binding, 1536-well; hits give low values; control for the full effect not named in the record | activity change, % (test concentration not listed) | hit rate 0.49% among 340,000 | AID 651724; in the data active means activity change below about -65%; inconclusive means about -30% to -65%; inactive means above about -30%; note: % is set by controls: 0 for no effect and ±100 for the full control effect; compound concentration not given in the record
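GST-E1A and His-tagged CtBP (125 nM each as 5X stock) were preincubated with pin-transferred compound for 2 h at 37 °C in the dark, then glutathione donor and nickel acceptor beads were added for 1 h before AlphaScreen reading.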
The depositor's hits bear a star; ? = inconclusive; / = not tested or not shown; [ ] = dose if it differs, or a comment.

SMILES | D2 potentiator | gsp agonist | gsp antagonist | Six1-Eya2 inh | D2 ag | CtBP-E1A inh
CC(C)N(Cc1ccccc1)C(=S)NC1CCCCC1 | -8 | 8%[15.4 µM] | 1% | 2 | 2.4 | 0
Cc1cccc(NC(=O)[C@H](Cc2ccccc2)NC(=O)[C@@H]2Cc3ccccc3CN2)c1 | -13 | 11% | 10% | 2 | -1.0 | 3
CCOC(=O)c1c(-c2ccccc2)csc1NC(=O)c1cc2ccccc2oc1=O | 7 | -37%[inhibitor] | -2% | -4 | 0.3 | -3
COc1ccc(C)cc1NC(=O)CSc1nnc(CC(=O)Nc2ccccc2C)n1C | -8 | -23% | 0% | -2 | -1.1 | -2
O=C(Cn1ncc2c3ccccc3n(Cc3ccccc3F)c2c1=O)NC1CC1 | -8 | -35% | -5% | 1 | 1.6 | 3
O=C(COC(=O)Cc1ccccc1F)Nc1ccc(Cl)cn1 | -6 | -2%[15.4 µM] | 14% | -1 | -4.7 | 1
CCOC(=O)/C(=N/Nc1ccc(OC)cc1)N1CCCc2ccccc21 | 2 | 7%[15.4 µM] | -11% | ? | 1.0 | -16
Cc1ccc(-c2cc([C@H]3[C@@H]4C=CCC[C@@]4(C)C(=O)N3Cc3ccccc3)ccc2F)cc1 | -10 | / | -13% | -4 | -1.9 | -8
Cc1c([N+](=O)[O-])oc2c1C(=O)NCCC2 | -10 | ? | / | 8 | -4.4 | -10
CCc1cccc(N(C(=O)c2csnn2)C(C(=O)NC(C)(C)C)c2ccccn2)c1 (stereo not given) | -2 | -5%[15.4 µM] | -4% | 0 | -3.2 | -3
O=C1C2CC=CCC2C(=O)N1c1ncn[nH]1 (stereo not given) | -5 | 7% | 10% | 0 | 0.0 | -6
O=C(N/N=C/C=C/c1ccccc1)C1CC1(c1ccccc1)c1ccccc1 (stereo not given) | -12 | 6% | -1% | -2 | 0.2 | 10
COc1ccc(C(=O)Nc2nc3cc4c(cc3s2)OCCO4)c(OC)c1 | -9 | ? | -7% | 1 | -2.2 | -17
CC1(Cc2ccc(Cl)cc2)C(=O)Nc2ccc(-c3cccnc3)cc21 (stereo not given) | -15 | / | / | 3 | 5.5 | -1
CCNC(=S)N(CCc1ccc(OC)c(OC)c1)Cc1cc2cc(OC)ccc2[nH]c1=O | 0 | -2% | -10% | -5 | -0.1 | 0
CC(=O)c1c(C)[nH]c(C(=O)NCCc2ccc(Cl)cc2)c1C | -3 | -8% | 3% | 0 | -5.1 | -1
COc1ccc(-c2nc(CN3CCN(c4ccccc4OC)CC3)c(C)o2)cc1 | -8 | -5%[15.4 µM] | 4% | -10 | -8.0 | -20
COC(=O)c1cn(NC(=O)c2ccc([N+](=O)[O-])c(C)c2)c(=O)c2ccccc12 | -5 | 2%[15.4 µM] | -14% | 4 | 1.7 | 11
Cn1cnnc1SCC(=O)Nc1ccc(S(=O)(=O)N2CCCC2)cc1 | -3 | -3% | 8% | 4 | -3.2 | 4
CCn1nc(C)c(CNC(=O)C2CCC(=O)N(CCc3ccc(Cl)cc3)C2)c1C (stereo not given) | -12 | -15% | -15% | 15 | 2.7 | 9

Reprinted from the part before: three compounds, followed by the next part.
SMILES | D2 potentiator | gsp agonist | gsp antagonist | Six1-Eya2 inh | D2 ag | CtBP-E1A inh
COC(=O)c1cn(NC(=O)c2ccc([N+](=O)[O-])c(C)c2)c(=O)c2ccccc12 | -5 | 2%[15.4 µM] | -14% | 4 | 1.7 | 11
Cn1cnnc1SCC(=O)Nc1ccc(S(=O)(=O)N2CCCC2)cc1 | -3 | -3% | 8% | 4 | -3.2 | 4
CCn1nc(C)c(CNC(=O)C2CCC(=O)N(CCc3ccc(Cl)cc3)C2)c1C (stereo not given) | -12 | -15% | -15% | 15 | 2.7 | 9
CC(C)n1c(=O)c2ccccc2n1Cc1cn(-c2ccc(Cl)cc2)nn1 | -1 | / | / | 5 | -2.6 | 11
O=C(NCCc1ccc(F)cc1)C1CCCO1 (stereo not given) | -2 | -75%[inhibitor] | 13% | 1 | 4.3 | 3
COc1ccc(S(=O)(=O)NCc2nc3nc(C)cc(C)n3n2)cc1 | -2 | -36%[inhibitor] | 10% | 6 | 0.8 | 13
CC(C)N(CCn1c(=S)[nH]c2ccccc2c1=O)C(C)C | -20 | -18% | 7% | -2 | -1.2 | 1
N#C/C(=C/c1ccc(N2CCOCC2)c([N+](=O)[O-])c1)C(N)=O | -7 | -92%[inhibitor] | 5% | -2 | -1.2 | -9
O=C(NCCCO)c1nc2ccccc2s1 | -10 | 6% | -6% | -3 | -3.3 | -1
CC(C)(C)C(=O)Cn1ncc(N2CCOCC2)c(Cl)c1=O | -3 | -4% | -2% | 2 | 2.2 | /
COc1ccc(-c2cc(CS(=O)(=O)c3ccccc3)on2)cc1 | 9 | -67%[inhibitor] | -4% | 15 | -2.4 | 1
O=[N+]([O-])c1ccc(N2CCN(Cc3ccncc3)CC2)cc1 | 0 | -10% | 0% | -8 | 7.4 | /
Cc1ccc(NC(=O)COC(=O)CNC(=O)c2ccc(C)s2)cc1 | 0 | -20%[15.4 µM] | -5% | -18 | 2.2 | 0
O=C(CSc1nc2ccccc2c(=O)n1-c1cccc(C(F)(F)F)c1)NC1CC1 | -1 | 5% | -4% | 0 | -4.1 | -3
COc1ccc([N+](=O)[O-])cc1N(CC(=O)N1CCCCC1)S(C)(=O)=O | -4 | -10%[15.4 µM] | -8% | 3 | 0.2 | 1
CC1(C)Cc2c(sc(NC(=O)COc3ccc(Cl)cc3)c2C(N)=O)C(C)(C)N1 | 12 | -6% | 2% | 4 | -2.9 | 7
CC(=O)N1CCN(C(=O)CCNS(=O)(=O)c2ccc(Br)cc2)CC1 | 2 | 40% | 1% | -3 | 0.6 | 4
CCOC(=O)C1CN(S(=O)(=O)c2ccc(OC)cc2)c2cc(Cl)ccc2O1 (stereo not given) | 3 | -39%[inhibitor] | -4% | 15 | -0.6 | 7
Cc1ccc(S(=O)(=O)N2CCC(O)(c3cccnc3)CC2)cc1 | -7 | -6% | -4% | 0 | -1.2 | 8
C=CCN(c1ccccc1C(=O)O)S(=O)(=O)c1ccc(C)cc1 | 0 | 18%[15.4 µM] | 1% | 3 | 3.3 | /
CCOC(=O)C1(Cc2ccc(Cl)cc2)CCN(C(=O)c2sc(C)nc2C)CC1 | 2 | -21% | ? | 2 | -0.1 | -3
O=C(O)Cn1c(SCCOc2ccc(Cl)cc2)nc2ccccc21 | -5 | -3%[15.4 µM] | -2% | 4 | -2.3 | -9
O=C(c1cccc(C(=O)N2CCN(Cc3ccccc3)CC2)c1)N1CCN(Cc2ccccc2)CC1 | -3 | -3% | -24% | -5 | -1.1 | -1

As entered above:
Reading of CCOC(=O)C1(Cc2ccc(Cl)cc2)CCN(C(=O)c2sc(C)nc2C)CC1 under D2 potentiator: 2
Reading of CCNC(=S)N(CCc1ccc(OC)c(OC)c1)Cc1cc2cc(OC)ccc2[nH]c1=O under D2 potentiator: 0
Reading of CC(=O)c1c(C)[nH]c(C(=O)NCCc2ccc(Cl)cc2)c1C under CtBP-E1A inh: -1
Reading of Cc1c([N+](=O)[O-])oc2c1C(=O)NCCC2 under CtBP-E1A inh: -10
Reading of O=C(Cn1ncc2c3ccccc3n(Cc3ccccc3F)c2c1=O)NC1CC1 under Six1-Eya2 inh: 1
Reading of O=C(N/N=C/C=C/c1ccccc1)C1CC1(c1ccccc1)c1ccccc1 (stereo not given) under D2 potentiator: -12

Carrying on:
SMILES | D2 potentiator | gsp agonist | gsp antagonist | Six1-Eya2 inh | D2 ag | CtBP-E1A inh
CC1(C(=O)NS(=O)(=O)c2ccccc2)CCN1C(=O)Cc1cc(F)ccc1F (stereo not given) | -5 | / | / | 8 | -3.8 | 0
COc1ccc(-n2c(=O)c3c4c(sc3n(CC(=O)Nc3cc(C)[nH]n3)c2=O)CCCC4)c(OC)c1 | -3 | 7%[15.4 µM] | -13% | -11 | -2.8 | -22
Cc1cc(C)n2nc(C(=O)OCC(=O)NC3CCCCC3)nc2n1 | 2 | 12%[15.4 µM] | -1% | -5 | -2.6 | 1
CCN1C(=O)/C(=C2/C=CC=CN2C)OC1=S | -8 | 8% | -19% | -3 | -0.8 | 0
N#CC1=C(N)Oc2c(oc(CO)cc2=O)C1c1ccsc1 (stereo not given) | 6 | -26% | -4% | -15 | -1.6 | 3
O=S(=O)(c1ccc2oc3ccccc3c2c1)N1CCOCC1 | -7 | -10% | -2% | -1 | -0.5 | -4
COc1cccc(NC(=O)CCN2C(=O)C3CC=CCC3C2=O)c1 (stereo not given) | -11 | 28% | 5% | -8 | -2.5 | -4
O=C1OC(Cc2ccccn2)C(O)=C1C1=NCCCCN1 (stereo not given) | -1 | -12%[15.4 µM] | 10% | -5 | -5.1 | -15
CC(C)N1C(=O)N(c2ccc(Cl)cc2)C(C)(O)CC1(C)C (stereo not given) | -3 | ? | 3% | 9 | -5.8 | 3
O=C(/C=C/c1ccccc1[N+](=O)[O-])NCCc1ccc(F)cc1 | -10 | 10% | -19% | -1 | -3.7 | /
CCCCC(=O)N(c1ccc(OC)cc1)C1C=CS(=O)(=O)C1 (stereo not given) | -1 | -23% | 5% | 0 | -1.7 | -4
Cn1cc(C(=O)N/N=C/C=C/c2ccccc2)ccc1=O | 3 | -1% | 7% | 2 | -1.1 | 2
COc1ccc(CCNC(=O)c2nonc2N)cc1 | 2 | -1% | -3% | 2 | -0.8 | -6
Cc1cccc(N2CCN(C(=O)C3CCCCC3)CC2)c1C | -26 | -28% | -5% | 0 | 0.4 | 8
CC(C)NCC(O)COc1c(F)cc(Br)cc1F (stereo not given) | -6 | -40% | 0% | -1 | -0.5 | 6
CC(C)N(Cc1nccn1C)C(=O)CC1C(=O)NCCN1Cc1ccc(F)cc1 (stereo not given) | -10 | ? | 17% | 0 | -2.7 | 2
COCCNC(=O)C(NC(=O)C1CCCCC1)C12CC3CC(CC(C3)C1)C2 (stereo not given) | -5 | -30%[inhibitor] | -2% | 1 | -2.3 | /
CN(C)c1ccccc1C(=O)N1CCC(n2nccc2NC(=O)C2CC2)CC1 | -2 | 3% | 1% | 2 | 2.3 | 8
CC(=O)C1=C(S(=O)(=O)c2ccc(C)cc2)CS(=O)(=O)C1 | -23 | ? | -27% | -14 | -7.0 | -2

Source: PubChem BioAssay
